# Menin-MLL FL inh: displaces fluorescein MLL peptide from human menin. Fluorescence polarization, fluorescein-MLL peptide displacement from menin. FP activity change, % at 61.4 µM. 290,000 tested, under 10 active. AID 1766; inconclusive = falling polarisation curve, or a change in total fluorescence; inactive = total fluorescence flat and polarisation flat or rising; no compound was filed as active; the % refers to the polarisation; negative = inhibition;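 note: % of control where 0% means no effect; inhibitors lower the polarisation; unlabelled MLL peptide was the positive control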
# Sfp inh: blocks B. subtilis Sfp PPTase activity; Potency, µM, for the others: max response, negative = inhibition, actives largely listed as inhibitors; Biochemical Sfp PPTase activity, qHTS; Q9F4F7; AID 1490; 310,000 compounds, 3.5% hits; active = well fitted inhibition curve with a large enough effect; inconclusive = small, poorly fitted or top-dose-only effect, or another doubt; inactive = no such curve, though single readings can be large or run the other way;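 note: the enzyme is Sfp with the accession as filed and its product quenches rhodamine fluorescence; potency is the fitted concentration of half-maximal effect; 0% = enzyme reaction without inhibitor and -100% = no enzyme wells; top concentration of the series not given in the record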
#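 Step 1, compound plus 15 nM Sfp-PPTase, 15 min, room temperature. Step 2, add rhodamine-CoA (5 uM) and BHQ-2-YbbR (12.5 uM). Step 3, read 525/598 nm fluorescence at 0 and 30 min.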
# The depositor's hits bear a star; u = inconclusive; & = joins results of further samples; [ ] = another dose, or the depositor's remark. Only part of the results is shown (hit frequency here may not be typical).
# Start of the listing, in advance, 2 compounds:
# Second line of a record: Menin-MLL FL inh | Sfp inh
CC1(C)OCC(CSC2=C(SCC3COC(C)(C)O3)C(=O)c3ncccc3C2=O)O1 (stereo unspecified)
  -2.5 | 1.26µM*
COC(=O)c1nnc(C(=O)NCc2ccccc2)c2[nH]c3ccccc3c12
  -3.8 | -1.2%

# This part in full, from the first entry:
# Second line of a record: Menin-MLL FL inh | Sfp inh
CC1(C)OCC(CSC2=C(SCC3COC(C)(C)O3)C(=O)c3ncccc3C2=O)O1 (stereo unspecified)
  -2.5 | 1.26µM*
COC(=O)c1nnc(C(=O)NCc2ccccc2)c2[nH]c3ccccc3c12
  -3.8 | -1.2%
NCC1CCC(N)C(O[C@@H]2C(O)[C@H](O[C@H]3OC(CO)C(O)C(N)C3O)[C@@H](N)C[C@H]2N)O1 (stereo partly specified)
  6.3 | 12.3%
CCCCCCC(O)C/C=C/CCCCCCCC(=O)O (stereo unspecified)
  -0.9 | 20.4%
O=C(O)c1sccc1S(=O)(=O)Nc1ccc(Cl)cc1
  -9.3 | 25.6%
CSc1nnc(SC)nn1
  0.9 | -21.6%
COC(=O)[C@@]1(Cc2ccc(OC)cc2)[C@H]2c3cc(C(=O)N(C)C)n(C)c3C[C@H]2CN1C(=O)c1ccccc1
  1.2 | 6.5%
C[C@H](C(=O)O)c1cccc(Oc2ccccc2)c1
  u | 19.5%
CC(C)C[C@@H](NC(=O)OCC1c2ccccc2-c2ccccc21)C(=O)O
  5.4 | 4.0%
CO[C@@H]1COC(=O)[C@@H](C)NC(=O)C/C=C\[C@@H](C)[C@H](NS(=O)(=O)c2ccc(C)cc2)COC(=O)[C@H](C)NC(=O)C/C=C\[C@H]1C
  -4.6[11.7 µM] | 12.5%
C=CCN1c2ccccc2[C@]23C[C@@H](C(=O)OC)N(S(=O)(=O)c4ccc(C#N)cc4)C2=NC(C(=O)OC)=C(C(=O)OC)[C@H]13
  -4.6[11.7 µM] | -3.9%
CO/N=C(/C(=O)N[C@@H]1C(=O)N2C(C(=O)O)=C(CSc3cnns3)CS[C@H]12)c1csc(N)n1
  2.0 | 39.8µM*
COC(=O)c1ccc(C(/C=C/[C@@H](C)C(=O)NCc2ccccc2)NC(=O)OCc2ccccc2)cc1 (stereo partly specified)
  2.5 | 25.9%
CCCCCCCCCCCCC/C=C/[C@@H](O)C(CO)NC(C)=O (stereo partly specified)
  -2.5 | -17.2%
CCCCN1CCC[C@@H]1CNC(=O)c1cc(C#N)c2ccccc2c1OC
  21.0 | -29.6%
NCCCCCCNc1nc2c(N)ncnc2n1[C@@H]1O[C@@H]2COP(=O)(O)O[C@H]2[C@H]1O
  7.5 | 10.6%
CC(C)C(NC(=O)C(CC(=O)O)NC(=O)C(CCCCN)NC(=O)C(N)CCCN=C(N)N)C(=O)NC(Cc1ccc(O)cc1)C(=O)O (stereo unspecified)
  1.1 | 11.5%
NC[C@@H]1O[C@@H](O[C@H]2[C@H](O)[C@H](O[C@@H]3O[C@H](CO)[C@@H](O)[C@H](N)[C@@H]3O)[C@@H](N)C[C@H]2N)[C@H](N)C[C@@H]1O
  1.9[24.8 µM] | 9.3%
C#CCCCO/N=C1/C[C@@H](O)[C@@H](O)[C@@H]2[C@@H]3C(=O)N(c4cccc(Oc5ccccc5)c4)C(=O)[C@H]3CC[C@H]12
  -1.2[11.7 µM] | 17.7%
CC[C@@]1(c2ccccc2)NC(=O)NC1=O
  -1.5 | -6.0%

# Profiles, looked up by structure. Screens in order: Menin-MLL FL inh	Sfp inh
# `CC(C)C[C@@H](NC(=O)OCC1c2ccccc2-c2ccccc21)C(=O)O` as listed: 5.4	4.0%
# `COC(=O)c1nnc(C(=O)NCc2ccccc2)c2[nH]c3ccccc3c12` as listed: -3.8	-1.2%
# `CC[C@@]1(c2ccccc2)NC(=O)NC1=O` as listed: -1.5	-6.0%

# New compounds follow
# Second line of a record: Menin-MLL FL inh | Sfp inh
CCCC[C@@H]1C[C@H]1C(NC(=O)c1ccc(C(F)(F)F)cc1)c1ccc(C(=O)OC)cc1 (stereo partly specified)
  1.1 | 4.1%
CCN1C(=O)[C@H]2[C@H]3[C@H](O)[C@H](O)C/C(=N/O[C@@H](C)c4cc(-c5c(C)cc(C)cc5C)no4)[C@@H]3CC[C@@H]2C1=O
  -0.3[11.7 µM] | -1.5%
CC(C)CO/N=C1/C[C@@H](O)[C@@H](O)[C@@H]2[C@@H]3C(=O)N(Cc4ccc5c(c4)OCO5)C(=O)[C@H]3CC[C@H]12
  0.6[11.7 µM] | 12.8%
COc1cc2c(cc1O)CCC1C2CC[C@@]2(C)C1CC[C@@H]2O (stereo partly specified)
  -9.6 | -9.1%
COC(=O)C1C(C)OC(=O)NC1c1ccccc1 (stereo unspecified)
  -7.1[11.7 µM] | 8.6%
COC(=O)c1ccc(C(NC(=O)OCc2ccccc2)/C(=C/[C@@H](C)C(=O)N(C)Cc2ccccc2)c2cccnc2)cc1 (stereo partly specified)
  -3.0 | 21.6%
O=C1C=C[C@@H](O)[C@H]2[C@@H]3C(=O)N(Cc4ccc5c(c4)OCO5)C(=O)[C@@H]3CC[C@H]12
  -1.5[11.7 µM] | 10.3%
O=S(=O)(NCCNC/C=C/c1ccc(Br)cc1)c1cccc2cnccc12
  -1.5 | -5.6%&-10.5%
Cc1nc(NCc2ccccc2)c2nc(-c3ccccc3)n(CCN3CCCCC3)c2n1
  -1.7 | 9.1%
CC(C)C[C@@H](CC(=O)N[C@@H](CCC(=O)O)CC(=O)O)NC(=O)[C@@H]1CCCC[C@H]1NC(=O)C[C@@H](NC(=O)C[C@H](CO)NC(=O)[C@@H]1CCCC[C@H]1N)C(C)C
  -11.0 | -2.6%
CC(C)NC[C@H]1CCc2cc(CO)c([N+](=O)[O-])cc2N1
  3.4[24.8 µM] | 23.2%
COc1ccc(-c2nc(-c3ccccc3)oc2NC(C)C)cc1
  -4.9 | -22.1%
CC(=O)OC1CC2C(C)(C)C=CC(=O)[C@@]2(C)C2CC[C@@]3(C)C(c4ccoc4)OC(=O)C4OC43[C@]12C (stereo partly specified)
  1.8 | 0.7%
Cc1ccc([N+](=O)[O-])cc1S(=O)(=O)N(C)C
  2.6&2.0&0.4&3.5 | 3.9%&14.7%
C1=C(CN2CCOCC2)COc2c1cccc2OC[C@@H]1CNCCO1
  -6.7 | -0.7%
NC(=O)OC[C@@H]1[C@H](NC(=O)/C(=N/OCC(=O)O)c2csc(N)n2)C(=O)N1S(=O)(=O)O
  -6.5 | u
NC(=O)c1ccc(C[C@H](C(=O)O)N2C(=O)c3ccc(C(=O)O)cc3C2=O)cc1
  -6.6 | 13.0%
NCCC[C@@H](CC(=O)N[C@@H]1CCNC[C@H]1C(=O)N[C@H](CC(=O)N[C@@H](CCC(=O)O)CC(=O)O)Cc1ccccc1)NC(=O)C[C@H](Cc1c[nH]c2ccccc12)NC(=O)[C@@H]1CCCC[C@H]1N
  16.8 | 4.5%
COc1cc(C)c(CC/C(C)=C/C=C/C(C)=O)c(C)c1C
  5.3 | u
COC(=O)[C@@]1(Cc2ccc(OC)cc2)[C@H]2c3cc(C(=O)N4CCCC4)n(CCF)c3C[C@H]2CN1C(=O)c1ccccc1
  -1.8 | -18.0%
CSc1nc(NC2CCCC2)c([N+](=O)[O-])c(NC2CCCC2)n1
  u | -22.7%&-23.9%
COC(=O)CCCC1=CC2=CC(=O)C(C)(OC(=O)c3ccco3)C(=O)C2=CO1 (stereo unspecified)
  u | -1.8%
COC(=O)/C(Cc1cc(Br)c(OC)c(Br)c1O)=N/O
  -1.1 | 6.8%
COc1ccc(OC)c(C2=Nn3c(nnc3-c3ccccc3O)SC2)c1
  0.0 | -23.3%
COCn1c2ccccc2c2nnc(C(=O)O)nc21
  -3.5[11.7 µM] | -4.3%
CC12CCC(C1)C(C)(C)C2=O (stereo unspecified)
  2.8 | 19.4%
CC1(C)C(=O)CC[C@@]2(C)C1CC(O)[C@@]1(C)C3=CC(=O)OC(c4ccoc4)[C@]3(C)CCC21 (stereo partly specified)
  -0.1 | 0.6%
COC(=O)NC(CC(C)=O)c1cccc(F)c1 (stereo unspecified)
  2.1[11.7 µM] | -5.8%
CC12CC3OS(=O)OC3CC3C4C(C(OCc5ccccc5)C31)C42 (stereo unspecified)
  -0.5[11.7 µM] | -5.3%
C/C=C\C1=C(CO)C(=O)C2O[C@]2(CC=C(C)C)C1=O (stereo partly specified)
  8.6[11.7 µM] | -8.9%
O=C1O[C@H](CN2CCOCC2)CN1/N=C\c1ccc([N+](=O)[O-])o1
  2.6[24.8 µM] | 18.6%
CCCCCCCCCCCC(=O)N(CCO)CCO
  -0.1 | -3.8%
NC(=O)C[C@H](NC(=O)Cc1ccc(O)cc1O)C(=O)O
  u | u
CCCCCCC#Cc1cc(OC)c(OC)cc1C(N1CC(C)c2ccccc21)N1CC(C)c2ccccc21 (stereo unspecified)
  1.3[11.7 µM] | -2.4%
CCCCCCCc1cc2c(cn1)C(=O)C(C)(OC(C)=O)C(O)=C2Cl (stereo unspecified)
  -4.9 | 0.8%
COc1cccc([C@@H]2Oc3ccc(OC)cc3C(=O)[C@H]2OC(=O)Nc2ccc(C)c(Br)c2)c1
  -1.7 | -14.1%
O=C(O)c1ccc(O)cc1
  2.3 | 2.3%
COC(=O)CC1C(C)(C)C(OC(C)=O)C2[C@H](OC(C)=O)[C@]34O[C@]2(O)[C@]1(C)C3CC[C@]1(C)C4=CC(=O)OC1c1ccoc1 (stereo partly specified)
  -1.6 | 8.4%
NC(=O)c1cc[n+](CC2=C(C(=O)O)N3C(=O)[C@@H](NC(=O)[C@H](c4ccccc4)S(=O)(=O)[O-])[C@@H]3SC2)cc1
  -4.1[24.8 µM] | u
O=C(N/N=C1/C[C@@H](O)[C@@H](O)[C@@H]2[C@@H]3C(=O)N(c4cccc(Oc5ccccc5)c4)C(=O)[C@H]3CC[C@H]12)OCc1ccccc1
  -4.3[11.7 µM] | 10.7%

# The listing continues:
canonical_smiles,Menin-MLL FL inh,Sfp inh
OCC(O)CS (stereo unspecified),-2.4,15.4%
CN(C)c1nc(N)c(C(=O)Nc2cccnc2)nc1Cl,2.2,-15.0%
O=C(O)C1=C(CSc2nnnn2CS(=O)(=O)O)CS[C@@H]2[C@H](NC(=O)[C@H](O)c3ccccc3)C(=O)N12,3.7,79.4µM*
CCC/C=C/C1C(=O)C2OC2C2(OCC(CC)(CC)CO2)C1CO (stereo unspecified),-2.8[11.7 µM],1.2%
CO/N=C(/C(=O)N[C@@H]1C(=O)N2C(C(=O)O)=C(COC(N)=O)CS[C@H]12)c1ccco1,0.3,-24.0%
C[C@H](N)C(=O)N[C@@H](Cc1ccc(F)cc1)C(=O)N[C@@H](CCCN=C(N)N)C(=O)N[C@@H](CC1CCCCC1)C(=O)N[C@@H](CCCCN=C(N)N)C(=O)N[C@@H](Cc1ccc(O)cc1)C(N)=O,-10.6,-1.7%
Cc1c(C2CCN(CCc3ccccc3)CC2)noc1-c1ccc(Cl)cc1,-10.1,3.1%&-7.8%
O=C(O)c1ccc(S(=O)(=O)N(Cl)Cl)cc1,-6.5,-24.6%
OCl,-2.5,13.3%
COc1ccc(-c2nnc3n2N=C(c2cc(OC)ccc2OC)CS3)cc1,3.8,-8.4%
COC(=O)c1ccc(C(NC(=O)OCc2ccccc2)/C(=C/[C@@H](C)C(=O)NCc2ccc(OC)c(O)c2)c2cccnc2)cc1 (stereo partly specified),1.1,-7.5%
CCCOc1ccc2nc(NC(=O)OC)sc2c1,-11.0,-11.1%
OCCN1CC(O)C(O)C(O)C1CO (stereo unspecified),-6.5,13.6%
O=C(O)c1nc(=O)[nH]c(=O)[nH]1,0.8,-22.2%
O[C@@H](c1ccccc1)C1CCN(CCc2ccccc2)CC1,-23.3,5.8%
CCCCCCN(C(=O)CCCCCN1C(=O)NC(c2ccc(C(F)(F)F)cc2)C(C(=O)OCc2ccccc2)=C1C)C(C(=O)NCCCC)c1ccc(OCC(=O)OC)c(C(=O)OC)c1 (stereo unspecified),0.2,16.2%
COC(=O)c1ccc(C(NC(=O)OCc2ccccc2)/C(F)=C/[C@@H](C)C(=O)Nc2ccc(OC)cc2)cc1 (stereo partly specified),0.8,18.6%
O=C1CC2(CCCC2)CC(=O)N1CCCCNC[C@H]1COc2ccccc2O1,-8.5,8.9%
CCN(CC)C(=O)[C@@]1(c2ccccc2)C[C@@H]1CN,-0.2,2.8%
C[Se]CCC(N)C(=O)O (stereo unspecified),-1.9,u
CC(=O)Nc1c(I)c(C(=O)O)c(I)c(N(C)C(C)=O)c1I,-2.6,29.2%
O=C(O)c1cc(=O)[nH]c(=O)[nH]1,1.8,u
CCCCCCCCCCCCCCCC(=O)OCC(O)C1OC(=O)C(O)=C1O (stereo unspecified),2.2,u
COC(=O)C/C=C/[C@@H](C)[C@@H](Cc1ccccc1Br)OC,1.3,-3.7%
C=C1c2ccccc2O[C@H](C(=O)OCC)[C@@H]1C1CCCCC1 (tested in a mixture with another compound),5.1[94.6 µM],-26.2%
CCOC(=O)CN1C(=O)N[C@@H](c2cccc(C(F)(F)F)c2)[C@H](C(=O)OC)[C@H]1C,-1.7[11.7 µM],3.9%
COc1cccc([C@@H]2Oc3ccc(OC)cc3C[C@H]2OC(=O)N[C@H]2CCCc3ccccc32)c1,-3.2,11.8%
CO[C@H]1COC(=O)C/C=C\[C@@H](C)COC(=O)[C@@H](C)NC(=O)C/C=C\[C@@H]1C,-1.5[11.7 µM],1.1%
COC(=O)[C@H](CC(C)C)NC(=O)c1ccc(NC[C@@H](N)CS)cc1-c1cccc2ccccc12,-0.3,u
